Compound activity from PubChem.
GALR2 agonist: activates the human galanin receptor 2; AID 803; GALR2-expressing cells, agonist activation read-out; activation, %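 (tested at 5 µM)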; 140,000 compounds, 0.48% hits; O43603;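 active = above mean plus 3 SD of all compounds, about 5% in these data, not always enough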;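 also: 0% = vehicle buffer wells and 100% = reference agonist at full effect; tested in CHO reporter cells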
Target sequence (O43603 whole entry, looked up): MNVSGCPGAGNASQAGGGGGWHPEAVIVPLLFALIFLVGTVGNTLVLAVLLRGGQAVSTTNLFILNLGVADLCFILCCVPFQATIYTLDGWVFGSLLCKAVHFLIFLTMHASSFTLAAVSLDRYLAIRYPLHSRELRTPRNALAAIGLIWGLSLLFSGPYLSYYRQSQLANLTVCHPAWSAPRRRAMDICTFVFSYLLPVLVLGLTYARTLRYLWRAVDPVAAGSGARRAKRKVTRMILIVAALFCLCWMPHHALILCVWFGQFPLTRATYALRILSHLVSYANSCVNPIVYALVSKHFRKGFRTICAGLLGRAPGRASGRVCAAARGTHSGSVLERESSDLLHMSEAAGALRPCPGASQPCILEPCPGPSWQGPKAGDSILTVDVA
INS promoter inh: TRM-6 insulin promoter activity inhibition. inhibition, % at 2 µM. 130,000 compounds, 0.9% hits. TRM-6 cells (human fetal islet line), insulin promoter-eGFP reporter, imaging; reporter expression induced with tamoxifen;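 active = inhibition above the mean plus 3 SD, with well images judged a real hit on visual review, cut at about 60% in these data, passing the limit was not always enough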
PKD1 inh: inhibitors of human PKD1 kinase; Q15139; PKD1 kinase fluorescence polarization assay; inhibition, %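 (about 10 µM by stock and volumes)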; 200,000 compounds, 0.056% hits; AID 797;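 active = inhibition of 50% or more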;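 also: controls were vehicle for no effect and a reference inhibitor for full effect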
RGS16-Gao HTS: regulators of human RGS16-Galphao interaction. 220,000 compounds, 0.38% hits. O15492+P09471. bead-based flow cytometry RGS16-Galphao binding, fluorescence; actives lie on both sides. AID 1441. binding response (% of control), % at 10 µM;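 active = below 25% or above 175%, edge rows of some plates excepted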;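 also: Galphao activated by GDP with aluminum fluoride before binding; 100% = wells without compound and 0% = beads without RGS; some results beyond the cut were filed as inactive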
HSV replic up: HSV replication enhancement | maximum fold increase | HSV replication augmentation in cells, fold increase | 220,000 compounds, 0.005% hits;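 active = peak rise of 1.5-fold or more in the series; tested in PC3 cells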;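 also: first round at 10 µM; read as green reporter fluorescence; hits show the peak of a series up to 25 µM; 1 = signal of infected wells without compound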
INS promoter inh cell count: recorded beside INS promoter inh, whose call it bears; normalized cell count, %; measured here: cell count, toxicity; reference of the scale not given here;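 cells exposed to compound for 48 h; stained nuclei by imaging scaled within each plate; lower means fewer cells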
HSV replic up primary fold: further read-out of HSV replic up, marked with its call; fold increase; compound at 10 µM; measured here: primary screen fold increase 10 uM; tested in PC3 cells;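 GFP signal in the first replicate; 1 = infected wells without compound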
An asterisk follows results filed as active; i = inactive; · = no result given.

SMILES	GALR2 agonist	INS promoter inh	INS promoter inh cell count	PKD1 inh	RGS16-Gao HTS	HSV replic up	HSV replic up primary fold
CCOc1ccc(NS(=O)(=O)c2ccc(OC)c(C)c2)cc1	1.1	53	29	-9	104	i	0.9
c1ccc(-c2nc(-c3ccco3)cs2)nc1	-1.4	·	·	0	97	i	0.91
Cc1ccc(CNC(=O)c2cc(COc3c(F)cccc3F)on2)s1	·	40	122	-2	106	i	0.96
Cc1cc(C)cc(OCC(=O)Nc2ccc(N3CCN(S(C)(=O)=O)CC3)cc2)c1	-1.6	·	·	-9	98	i	0.83
O=C(O)c1ccc2c(c1)C1C=CCC1C(c1cc3c(cc1Br)OCO3)N2 (stereo not drawn)	·	50	131	-5	104	i	1.1
CN(CCCNC(=O)CCCOc1cc(=O)n(C)c2ccccc12)Cc1ccccc1	·	0	126	9	104	i	0.93
COC(=O)[C@@H]1CCCN1C(=O)CCc1nnc(CCc2c[nH]c3ccccc23)o1	·	-8	105	-3	105	i	1.1
CC(C)Cc1nc(Nc2ccc(S(=O)(=O)N3CCCC3)cc2)c2nnn(Cc3ccccc3)c2n1	-0.1	2	75	-4	260	i	0.85
Cc1nn(CC(O)c2ccccc2)c(C)c1Br (stereo not drawn)	-1.3	-9	124	7	101	i	1
Cc1ccccc1-c1nc(CS(=O)(=O)CC(=O)NCc2ccccc2)c(C)o1	-0.8	·	·	-4	90	i	0.92
CC(CCc1ccccc1)NCC(O)COc1ccccc1 (stereo not drawn)	·	·	·	0	101	i	0.83
O=C(NNC(=O)C1C2CCC(C2)C1C(=O)O)c1ccc(Cl)cc1 (stereo not drawn)	·	·	·	4	109	i	1
COCCCN1C(=O)c2[nH]nc(-c3ccccc3O)c2C1c1cccc(Cl)c1 (stereo not drawn)	0.1	·	·	12	96	i	0.74
O=C(NCCNC(=O)c1cc(OCC(F)(F)F)ccc1OCC(F)(F)F)Nc1ccccc1	-1.5	-44	49	1	96	i	0.76
CCOc1ccccc1N(CC(=O)N1CCCCCC1)S(C)(=O)=O	1.9	-67	143	-7	98	i	0.81
Cc1sc(NC(=O)c2cc(-c3ccc(Cl)cc3)nc3ccccc23)c(C(N)=O)c1C	0.1	·	·	16	95	i	0.82
CCCCNC(=O)Cc1ccc(C)cc1	-0.9	·	·	-5	100	i	1
Cc1ccc(NC(=O)C(=O)NCc2ccc(/C=N/NC(=O)c3c(C)nc4ccccn34)o2)cc1	-0.3	·	·	-2	100	i	0.91
COc1ccccc1C(=O)Nc1ccc(S(=O)(=O)N2CCOCC2)cc1	1.5	68	154	-11	93	i	0.87
O=C(NC1CCCC1)C(c1ccc(F)cc1)N(Cc1ccc(Cl)cc1)C(=O)CCl (stereo not drawn)	-1.1	-32	85	-8	104	i	1.1
CCCN(CCC)C(=O)NC1CC(=O)N(c2ccc(OC)cc2)C1 (stereo not drawn)	-2.7	·	·	1	102	i	1.1
O=C(Cc1ccc(-n2c(=O)c3ccccc3n(Cc3ccc(F)cc3)c2=O)cc1)NCC1CCCO1 (stereo not drawn)	-0.2	7	105	-13	47	i	0.95
COCCN(C(=O)CSc1nncn1-c1ccccc1)c1c(N)n(Cc2ccccc2)c(=O)[nH]c1=O	-1.3	30	140	-3	108	i	1
Cc1ccc(-n2nc(C)c3c2OC(N)=C(C#N)C3c2ccco2)cc1 (stereo not drawn)	-2.0	-33	113	-9	99	i	0.93
COc1ccc(-n2nnnc2SCC(=O)c2cc3ccccc3o2)cc1	-3.0	6	91	-11	100	i	1.1
CN(C)S(=O)(=O)N1CCN(CC(O)COc2ccc(C(=O)c3ccccc3)cc2)CC1 (stereo not drawn)	-0.1	-27	96	-1	167	i	0.98
CC1(C)CN2C(=O)c3ccccc3C2(C)S1 (stereo not drawn)	·	-13	117	-1	99	i	0.84
COc1ccc(CNC(=O)C(NS(=O)(=O)c2ccc3c(c2)CCCN3C(C)=O)C(C)C)cc1 (stereo not drawn)	-2.3	·	·	1	72	i	0.81
Cc1ccc(-c2cccc(C(=O)NCCc3ccccc3)n2)c2ccccc12	-2.0	19	80	-1	104	i	1.1
O=C(COC(=O)c1cccc(S(=O)(=O)N2CCCC2)c1)Nc1ccccc1	·	46	81	-8	93	i	0.94
Cc1ccc(Nc2n[nH]c(C)c2[N+](=O)[O-])cc1C	-0.2	·	·	-9	105	i	0.94
Cn1c(=O)c([N+](=O)[O-])c(NCc2ccccc2)c2ccccc21	-0.4	18	89	-15	96	i	1.1
N/C(=N\OC(=O)c1cc(Cl)ccc1Cl)c1cccnc1	-1.5	1	70	0	99	i	0.97
COCCNC(=O)CSc1nc2cc3c(cc2c(=O)n1CCCC(=O)NCCc1ccc(OC)c(OC)c1)OCO3	·	-21	51	-2	100	i	0.96
CC(C)C(c1nnnn1CCc1ccccc1)N1CCOCC1 (stereo not drawn)	-3.2	30	118	-3	106	i	1
COc1ccc(C(=O)N2CCN(S(=O)(=O)c3ccccc3)CC2)c(OC)c1	-0.8	23	98	-1	97	i	0.82
Cc1noc(/C=C/N(C)C)c1S(=O)(=O)N1CCCC(C(=O)NCc2ccc(Cl)cc2)C1 (stereo not drawn)	-1.2	·	·	-5	99	i	0.71
CCN(CC1COc2ccccc2O1)C(=S)Nc1ccc(F)cc1 (stereo not drawn)	-0.3	15	150	5	101	i	0.97
S=c1[nH]ncc2ccccc12	-0.8	-21	136	-4	102	i	0.89
O=C(OC1CCS(=O)(=O)c2sccc21)c1ccccc1 (stereo not drawn)	0.3	15	88	-3	103	i	0.84
COc1cc(/C=N/NC(=O)c2cnn3c(C)cc(-c4ccccc4)nc23)ccc1O	1.3	-10	113	1	96	i	1
CCCn1nnc(NC(=O)c2cc(Br)ccc2OC)n1	-0.8	84*	34*	4	102	i	0.98
CC(C)(C)c1ccc(C(=O)Nc2nonc2-c2nc3ccccc3[nH]2)cc1	-1.5	8	51	-6	96	i	0.85
C=CCNc1nc(=S)[nH]c2cc(OC)c(OC)cc12	·	·	·	9	101	i	0.92
O=C(N/N=C/c1ccc([N+](=O)[O-])cc1)c1cc2ccccc2o1	·	·	·	·	96	i	0.99
O=C(O)c1ccc2c(c1)N(Cc1ccccc1)C(=O)c1ccccc1S2=O (stereo not drawn)	-1.4	-70	41	-5	101	i	0.92
CS(=O)(=O)N(Cc1ccc(Cl)cc1)c1ccc(C(=O)NCCC2=CCCCC2)cc1	-1.2	-65	88	-4	105	i	0.7
Cc1ccc(C2NC(=O)c3sc(=S)n(-c4ccccc4)c3N2)cc1 (stereo not drawn)	·	·	·	2	148	i	0.98
CC(Cc1cccs1)NC(=S)Nc1ccc(Cl)cc1 (stereo not drawn)	0.4	-8	121	-15	107	i	0.96
COc1ccc(-c2cc(C(F)(F)F)nc(-n3ccnc3C)n2)cc1	-0.8	0	75	0	124	i	1.1
CCC(=O)/C=C1\Sc2ccc(OC)cc2N1CCO	0.5	-41	147	8	103	i	0.91
O=c1c2nnn(-c3ccc(Br)cc3)c2ncn1Cc1ccccn1	·	·	·	1	98	i	0.8
COc1ccc(NC(=O)C2CC2)cc1-n1cnnn1	-1.6	·	·	-4	103	i	0.77
CNC(=O)NC(=O)COC(=O)CCc1nc(=O)c2ccccc2n1C	·	7	137	2	98	i	0.91
CCNC(=O)COc1ccc(/C=N/NC(=O)c2cccnc2)cc1OC	·	-41	78	1	98	i	1.2
CSc1ccc(CCNC(=O)C2CCN(c3nnc(-n4cccc4)s3)CC2)cc1	-1.7	·	·	-3	102	i	1
O=C(NC1CCCC1)C1CCCN1C(=O)Nc1ccccc1 (stereo not drawn)	-1.6	·	·	-7	93	i	0.92
COC(=O)C1CCN(C(=O)c2ccccc2Oc2ccccc2)CC1	-0.6	·	·	-7	93	i	0.94
COc1ccc(NC(=S)NN(C)C(=S)Nc2ccc(OC)cc2)cc1	0.4	50	9	-9	104	i	0.59
O=C(NCc1ccccc1)c1nc2ccccc2s1	·	·	·	-2	99	i	0.96

Next section.
SMILES	GALR2 agonist	INS promoter inh	INS promoter inh cell count	PKD1 inh	RGS16-Gao HTS	HSV replic up	HSV replic up primary fold
Cc1cccc(OCC(=O)NCc2cc(C)nc3ccccc23)c1	·	0	91	1	105	i	0.97
C=CCSC1=N/C(=C\c2ccc3c(c2)OCO3)C(=O)S1	-0.7	64	107	-6	102	i	1
CCOc1ccccc1NC(=O)COC(=O)CC(NC(N)=O)c1ccc(Cl)cc1 (stereo not drawn)	·	·	·	-8	-89	i	0.97
O=C(NCCc1ccccc1)c1cc2ncc(Br)cn2n1	-0.5	14	203	1	105	i	0.92
CCN1C(=O)CC(N2CCC(C(=O)N3CCCCCC3)CC2)C1=O (stereo not drawn)	·	5	102	-4	97	i	0.96
COc1ccc(CN2CCn3ncc(C(=O)Nc4cc(C)cc(C)c4)c3C2=O)cc1	-0.6	-2	61	-1	99	i	0.82
O=C(O)CSc1nnc(-c2cccc(S(=O)(=O)N3CCCCC3)c2)o1	·	·	·	-5	100	i	1
COc1cc(O)c2c(c1)COC2=O	-0.4	34	137	-8	107	i	0.95

The order is random; about 1.2% have a hit in one of these screens.
